Bioassay records (PubChem BioAssay)
VDR inhibitor – vitamin D3 receptor (human) inhibition; P11473; VDR-SRC2-3 peptide fluorescence polarization, 2 h; Potency, µM, for the others: max response, negative = inhibition, actives largely listed as inhibitors; actives 0.93% (n = 400,000); active means well fitted inhibition curve with a large enough effect; inconclusive means small, poorly fitted or top-dose-only effect, or another doubt; inactive means no such curve, though single readings can be large or run the other way; further: series mostly up to about 120 µM
Target sequence (P11473 whole entry, looked up): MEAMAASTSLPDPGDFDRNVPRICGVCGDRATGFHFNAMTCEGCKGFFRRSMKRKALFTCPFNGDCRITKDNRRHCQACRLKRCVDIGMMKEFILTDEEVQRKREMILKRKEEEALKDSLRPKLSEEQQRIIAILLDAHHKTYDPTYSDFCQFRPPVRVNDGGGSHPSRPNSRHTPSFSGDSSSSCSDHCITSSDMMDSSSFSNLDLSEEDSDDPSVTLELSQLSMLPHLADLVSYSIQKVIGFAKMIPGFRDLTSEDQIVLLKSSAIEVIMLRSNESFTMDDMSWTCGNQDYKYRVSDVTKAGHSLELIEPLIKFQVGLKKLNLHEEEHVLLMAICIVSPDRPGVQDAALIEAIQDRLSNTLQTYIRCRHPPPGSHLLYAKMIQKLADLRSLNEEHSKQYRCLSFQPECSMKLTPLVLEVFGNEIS
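FP read-out; VDR + SRC2-3 coactivator peptide; 23 nl compound by pintool; 2 h RT incubation; reagents held at 4 deg C, protected from light.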
Active calls of the source: *; ? = inconclusive; & = joins results of further samples. On the % scale 0 is the no-effect control and ±100 the full control effect; potency means the concentration at half of the fitted maximal effect.

SMILES	VDR inhibitor
CC(OC(=O)c1cc(Br)ccc1O)C(=O)NC1(C#N)CCCCC1 (configuration not stated)	-3.0%
O=C(CSc1nc(=O)n2ccccc2n1)NCCc1ccccc1	-4.7%
O=C(NNc1c2ccccc2nc2ccccc12)C(O)c1ccccc1 (configuration not stated)	-15.0%
CC1CCN(C(=O)NC(=O)c2ccccc2)CC1	4.4%
COc1ccccc1N=c1oc2cc(O)ccc2cc1C(=O)NCC1CCCO1 (configuration not stated)	8.2%
CN(C)S(=O)(=O)c1ccc(C(=O)Nc2ccc(CCC(=O)N3CCCC3)cc2)cc1	-7.4%
Cc1cc(C)nc(SCc2cc(=O)c(OC(=O)c3cccc([N+](=O)[O-])c3)co2)n1	-10.2%
CN1CCN(c2ncncc2-c2ccoc2)CC1	?
COc1ccc(F)cc1S(=O)(=O)Nc1ccc2c(c1)OCCO2	-22.4%
CCCCc1cc(=O)oc2cc(OCc3cc(OC)c(OC)c(OC)c3)c(Cl)cc12	-0.7%
CCOC(=O)c1c(NC(=S)NNS(=O)(=O)c2ccc(Br)cc2)sc2c1CCCCC2	?
COc1ccccc1N(CC(=O)NC1CCCCC1)C(=O)c1csnn1	-1.4%
CCCc1ccc2oc(C(=O)NCCc3nc(C(=O)OCC)cs3)c(C)c2c1	0.4%
CCCCOc1ccc(C(=O)O)cc1	11.6%
COc1ccccc1N1CCN(C2CCCN(C(=O)c3cc(C4CC4)on3)C2)CC1 (configuration not stated)	-7.5%
Cn1c2c(c(=O)n(C)c1=O)C(CC(=O)Nc1ccccc1F)C(=O)N2 (configuration not stated)	-9.5%
CCn1c(=O)cc(SCC(=O)N2CCN(Cc3ccc4c(c3)OCO4)CC2)c2ccccc21	15.7%
N#C/C(=N\Nc1ccc(S(=O)(=O)N2CCCCCC2)cc1)C(N)=S	?
CCCCCCC(C)n1[nH]c(=O)c2c(C)cc(C)nc21 (configuration not stated)	19.0%
Cc1ccc(NS(=O)(=O)c2ccc(NC(=O)N3CCCC3)cc2)cc1C	12.6%
COc1ccc([C@H]2CC(=O)C=C(c3ccc4[nH]ccc4c3)C2)cc1OC	4.8%
CCOC(=O)C1CCN(C(=O)CCc2nc3sc4c(c3c(=O)[nH]2)CCCC4)CC1	-9.3%
Oc1ccccc1-c1n[nH]c(=S)n1Cc1ccco1	-11.5%
Cn1ccc2ccc(C3=CC(=O)C[C@H](c4ccc(F)cc4)C3)cc21	-22.4%
COc1ccc(Cl)cc1NC(=O)[C@@]1(CC(=O)O)CC(/C=C/c2ccccc2)=NO1	6.8%
Cc1cccc(Nc2nc(N)nc(CSc3nccn3C)n2)c1	9.8%
O=C(N/N=C/c1cccnc1)c1ccc(NC(=O)C(c2ccccc2)c2ccccc2)cc1	1.8%
CSCCC(NC(=O)C1CCCCC1)C(=O)Nc1ccc(F)c(Cl)c1 (configuration not stated)	-8.7%
N#C/C(=C\c1ccc(-c2cccc(Cl)c2)o1)C(=O)Nc1cccc(C(F)(F)F)c1	1.2%
COc1ccc(NC(=O)CCNS(=O)(=O)c2cccc3nonc23)cc1Cl	12.1%
CCn1c(CSc2ncccn2)nnc1SCC(=O)N1CCCCC1	5.2%
O=C(O)C1C=Cc2ccccc2N1C(=O)c1ccccc1 (configuration not stated) (tested in a mixture with another compound)	-8.6%
COc1ccc2c(c1)C(=O)CC(O)(C(F)F)O2 (configuration not stated)	-1.6%
Cc1nc(C(F)(F)F)ccc1C(=O)N1CCCCC1	1.2%
Cc1ccc(-c2nc(CN3CCCCC3)cc(CN3CCCCC3)c2O)cc1	11.6%
Cc1ccc(S(=O)(=O)NCc2cccnc2)c(C)c1	9.8%
CC(=O)N(CC(=O)N(CC(=O)O)c1ccc(Cl)cc1)c1ccc(Cl)cc1	-12.6%
COC(=O)CCC(=O)OC1(C)C(=O)C2=CN(C3CC3)C(c3ccc(OC)cc3)=CC2=C(Br)C1=O (configuration not stated)	?
COc1ccc(CONc2ncnc3nonc23)cc1[N+](=O)[O-]	2.1%
c1ccc2c(c1)nc1n2CCN1CCN1CCCC1	-3.6%
CC(C)(C)c1cc(C(=O)N2CCc3ccccc3C2)ccn1	-0.5%
Cc1ccc(C(=O)c2c3ccc(C(F)(F)F)cc3[n+]([O-])n2CCC(N)=O)cc1	-17.6%
COc1cccc(N2CC(NC(=O)C3CCCC3)CC2=O)c1 (configuration not stated)	9.0%
O=C(CSc1ccc(-c2ccc(Br)cc2)nn1)NCC1CCCO1 (configuration not stated)	8.5%
COc1ccc(OC)c(NC(=O)c2c(NCc3cccs3)sc3c2CCCCC3)c1	6.5%
COc1ccc(OC)c(NC(=O)Cn2c(=O)cc(C)c3c(C)nn(-c4cccc(Cl)c4C)c32)c1	16.0%
CCOC(=O)c1cc(C(C)=O)c(=O)n(C)c1N	-5.6%
CCC(CC)C(=O)c1c[nH]c(C(=O)NCc2ccccc2)c1	10.5%
Cc1nn(C)cc1C(=O)Nc1ccccc1Br	-15.2%
COc1ccc(CC(NC(C)=O)C(=O)NC2CCN(S(=O)(=O)c3cccc4ccccc34)CC2)cc1OC (configuration not stated)	1.6%
CC(=O)Oc1oc(-c2ccccc2)nc1C=Nc1ccc(N(C)C)cc1	5.7%
O=C(CSc1ncccc1C(=O)O)c1cccc(C(F)(F)F)c1	-3.9%
Cc1cccc(-c2nc(CN3CCCC(C(=O)NC4CCCCC4)C3)c(C)o2)c1 (configuration not stated)	-9.5%
O=C(Nc1ccccc1N1CCCC1)C1CC(=O)N(Cc2ccccc2)C1 (configuration not stated)	4.3%
CCc1ccc(NC(=O)CS(=O)CC(=O)N2CCN(c3ccccc3F)CC2)cc1 (configuration not stated)	-19.4%
C=CCn1c(=N)n(CC(=O)c2ccc(Br)s2)c2ccccc21	-6.1%
COc1ccc(/C=N/NC(=O)c2cccc([N+](=O)[O-])c2)cc1OC	-14.9%
CSC1=N/C(=C\c2ccc(C)o2)C(=O)S1	-5.7%
Cc1ccc(N2CC(c3nc4ccccc4[nH]3)CC2=O)c(C)c1 (configuration not stated)	4.9%
Cc1noc(C)c1C(=O)OCC(=O)Nc1ncc(Cl)c(C)c1Cl	-11.2%

Arranged by value in VDR inhibitor (largest number first): six from the list above.
compound	VDR inhibitor
CCCCc1cc(=O)oc2cc(OCc3cc(OC)c(OC)c(OC)c3)c(Cl)cc12	-0.7%
O=C(CSc1nc(=O)n2ccccc2n1)NCCc1ccccc1	-4.7%
CSCCC(NC(=O)C1CCCCC1)C(=O)Nc1ccc(F)c(Cl)c1 (configuration not stated)	-8.7%
Cc1nn(C)cc1C(=O)Nc1ccccc1Br	-15.2%
Cc1ccc(C(=O)c2c3ccc(C(F)(F)F)cc3[n+]([O-])n2CCC(N)=O)cc1	-17.6%
CCc1ccc(NC(=O)CS(=O)CC(=O)N2CCN(c3ccccc3F)CC2)cc1 (configuration not stated)	-19.4%

Other entries follow.
SMILES	VDR inhibitor
CC(C)CCNC(=O)C(c1ccc(O)cc1)N(Cc1ccco1)C(=O)CCC(=O)Nc1nccs1 (configuration not stated)	-0.1%
COc1ccc(CNC(=O)C(c2cccc(C)c2)N(C(=O)c2csnn2)C2CC2)cc1 (configuration not stated)	-6.2%
COc1ccc(NC(=O)C2CCCN2C(=O)OCc2ccccc2)cc1 (configuration not stated)	12.0%
Cc1csc(=O)n1CC(=O)OCC(=O)NNC(=O)c1ccc(Cl)cc1	7.5%
Cc1ccc(NC(=O)c2ccc3nc[nH]c3c2)nc1	-10.7%
Cc1ccc(C(=O)CCC(=O)Nc2ncccc2O)cc1	3.8%
CCCn1c(SCC#N)nc2c(c1=O)C1(CCCC1)Cc1ccccc1-2	-5.4%
CCCNc1ccc(S(=O)(=O)N(C(C)C)C(C)C)cn1	2.9%
O=C(Nc1nccs1)c1ccc(CSc2nnnn2-c2ccccc2)cc1	3.4%
CC1C(=O)N2CCCc3cc(NC(=O)C(=O)NCCc4ccc(F)cc4)cc1c32 (configuration not stated)	4.0%
O=c1oc2ccccc2cc1NCc1ccccc1O	6.0%
CCOC(=O)N1CCC(=NNc2nc3ccccc3s2)CC1	2.3%
COc1ccc(Nc2nc(NCc3ccco3)nc(N)c2[N+](=O)[O-])cc1	-3.5%
O=C(N/N=C/c1ccco1)c1ccc(Br)o1	-5.4%
CCc1nnc(NC(=O)C2CCCN(C(=O)c3ccc(Cl)cc3)C2)s1 (configuration not stated)	12.2%
O=C(/C=C/c1ccccc1)Oc1ccc(C(=S)N2CCOCC2)cc1	1.8%
O=C(NCc1nc2ccccc2[nH]1)C1=C[C@H](c2ccc(Br)cc2)C[C@H](OCc2ccc(CO)cc2)O1	-20.7%
O=C(NCC1CCCO1)c1c(O)c2cccc3c2n(c1=O)CCC3 (configuration not stated)	16.6%
CC1=C(C(=O)OC(C)(C)C)C(c2ccco2)C(C#N)=C(N)O1 (configuration not stated)	-7.8%
Cc1cccc(C)c1NC(=O)CN(C)C(C)C(=O)NCC(=O)Nc1ccc(F)c(F)c1F (configuration not stated)	17.6%
NS(=O)(=O)c1ccc(S(=O)(=O)N2CCCC2)cc1	-10.2%
Cc1ccc(C)c(Oc2cc(NN3CCCCC3)c([N+](=O)[O-])cc2[N+](=O)[O-])c1	-22.2%
N/C(=N\NC(=O)Nc1ccccc1)c1ccccn1	5.9%
COCC1=C2c3ccccc3[C@H](C[N+](=O)[O-])C(C(=O)OC)(C(=O)OC)C[C@@H]2n2c(=O)n(-c3ccccc3)c(=O)n2C1	-0.4%&2.9%&-2.7%

Random excerpt: 6 records from the list.
SMILES	VDR inhibitor
N/C(=N\NC(=O)Nc1ccccc1)c1ccccn1	5.9%
O=C(NCc1nc2ccccc2[nH]1)C1=C[C@H](c2ccc(Br)cc2)C[C@H](OCc2ccc(CO)cc2)O1	-20.7%
Cc1cccc(C)c1NC(=O)CN(C)C(C)C(=O)NCC(=O)Nc1ccc(F)c(F)c1F (configuration not stated)	17.6%
COCC1=C2c3ccccc3[C@H](C[N+](=O)[O-])C(C(=O)OC)(C(=O)OC)C[C@@H]2n2c(=O)n(-c3ccccc3)c(=O)n2C1	-0.4%&2.9%&-2.7%
O=C(NCC1CCCO1)c1c(O)c2cccc3c2n(c1=O)CCC3 (configuration not stated)	16.6%
CC1=C(C(=O)OC(C)(C)C)C(c2ccco2)C(C#N)=C(N)O1 (configuration not stated)	-7.8%

The listing continues:
SMILES	VDR inhibitor
Cc1ccccc1CSc1nc(C(C)(C)C)cc(=O)[nH]1	-9.3%
COc1nnc(-c2ccc(N3CCCCC3)c(NC(=O)C3CCCCC3)c2)c2ccccc12	2.1%
CC1=CC2=NC(=O)/C(=C\c3cc(C)n(-c4ccccc4F)c3C)C(=N)N2O1	-6.9%
COc1ccccc1-c1nn(CCC(=O)Nc2cccc(C(C)=O)c2)c2nc(C)cc(C)c12	9.3%
COc1ccc(NC(=O)C(NC(=O)/C=C\c2ccc3c(c2)OCO3)c2ccc(C)cc2)cc1 (configuration not stated)	-17.7%
Cc1ccc(-c2cn3c(=O)cc(C)[nH]c3n2)cc1	-12.3%
COc1ccc(OC)c(-n2c(CNC3CCN(Cc4ccccc4)CC3)nc3ccccc3c2=O)c1	-9.9%
Cc1cc2nc(CSc3ccccc3)cc(=O)n2[nH]1	12.8%
COCCNC(=O)c1ccc(-c2nc(CS(=O)(=O)c3ccccc3)c(C)o2)cc1	14.9%
CC1=NC(C(F)(F)F)(C(F)(F)F)C(C#N)=C(C)N1	-8.5%
COc1ccc(OCCC(=O)NCC23CC4CC(CC(C4)C2)C3)cc1	-16.6%
O=C(Nc1nnc(S(=O)(=O)N2CCOCC2)s1)c1cccc(Br)c1	-4.0%&13.2%
COc1ccc(C(=O)Nc2nc(-c3nnn(-c4cc(OC)ccc4OC)c3C)ns2)cc1	-0.6%
O=C(Nc1nncs1)C(Sc1ccccc1)c1ccccc1 (configuration not stated)	-17.2%
CN(CC(=O)Nc1cccc(F)c1)C(=O)/C=C/c1ccc2ccccc2n1	4.3%
C/C(Cn1nc([N+](=O)[O-])cc1C)=N\NC(=O)COc1ccccc1[N+](=O)[O-]	-0.6%
CCOc1ccccc1Nc1ncnc2c1cnn2-c1ccccc1	-9.8%
O=C(NCc1ccccn1)C1CCCN(S(=O)(=O)c2cccc3nsnc23)C1 (configuration not stated)	-22.9%
N=c1oc2ccc(Br)cc2cc1C(=O)NCc1ccccc1	-11.7%
COc1cc2cc(C(=O)N/N=C/c3ccccc3Cl)[nH]c2cc1OC	9.8%
Cn1cnc2c(oc3ccccc32)c1=O	-5.8%
CC12CCC(C/C1=N\N=C1\NC(=O)/C(=C\c3ccc(Cl)cc3)S1)C2(C)C (configuration not stated)	?
COC(=O)c1ccc(COC(=O)c2c(C)nn(Cc3ccccc3Cl)c2Cl)o1	7.7%
CCCCCCC(=O)Nc1cc2c(C)cc(=O)oc2cc1C	8.1%
O=C(Nc1ccc(N2CCCCC2)cc1)c1ccc2ccccc2n1	-17.4%
COc1ccc2oc(C(=O)OCc3c(C)noc3C)c(C)c2c1	-6.3%
COc1ccc(C2(Nc3cccc(F)c3)C(=O)c3ccccc3C2=O)cc1	-8.4%
O=C(O)CC1COc2ccccc2N1S(=O)(=O)c1ccc(Br)cc1 (configuration not stated)	-5.2%
CCOC(=O)C1=C(C)N(C)C(=S)NC1c1cc(OC)ccc1OC (configuration not stated)	-4.0%
COc1ccc(N2CCN(C(=O)C3(S(=O)(=O)c4ccc(C)cc4)CC3)CC2)cc1	-9.9%
O=C(N/N=C/C1CC2CCC1C2)c1c[nH]c2ccccc12 (configuration not stated)	-3.5%
Cc1ccc(-c2c(C)n([O-])c3c([n+]2=O)CCCC3)cc1	-9.8%
COc1ccc(C(=O)Nc2cccc(S(C)(=O)=O)c2)cc1OC	1.9%
Cc1ccc(CNC(=O)C2CCCN(S(=O)(=O)c3cnc[nH]3)C2)cc1 (configuration not stated)	-0.6%
CN(C(=O)CSc1nncn1C)C1CCCN(Cc2ccccc2F)C1 (configuration not stated)	14.9%
c1ccc(SCc2nc(-c3ccccn3)no2)cc1	10.6%
COc1ccc(C(=O)C(CN2CCOCC2)c2ccccc2)cc1 (configuration not stated)	-10.1%
CN1CCN(c2ccc(Cl)cc2NC(=O)c2ccc(=O)n(C)n2)CC1	-17.5%

This is a subset; rates above refer to the full screens.
